# Source: PubChem BioAssay (ICCB-Longwood Screening Facility, Harvard Medical School)
# AID504770: E. coli YBA685 growth inhibition, screen for V. cholerae RctB inhibitors; E. coli YBA685 rctB-dependent plasmid, OD600 growth, 3 h; hits give low values; AID 504770; z-score (no concentration beside the values); hit rate 0.27% among 130,000;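 active = z-score under -2 on both plates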;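 note: wells of about 30 µL received 100 nL stock; score is relative to mean and SD of the test wells; the first replicate is given; strong numbers were not always called active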
# Ba CapD inh: CapD enzyme inhibition. purified CapD enzyme, fluorescence intensity read-out; hits give low values; some hits fall short of the stated cut. z-score (concentration not given with the values). hit rate 0.23% among 140,000. AID 492967;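 active = z-score under -4 in either of two replicates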;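 note: stock transfer was 100 nL into about 40 µL; score is relative to mean and spread of the plate; one replicate is shown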
# Numbers without * were called inactive; / = no result given.
# The first 4 records as a preview:
molecule,AID504770,Ba CapD inh
Cc1ccc2nc(-c3ccc(NC(=O)c4cc(C)on4)cc3)sc2c1,1.3,23.8
COc1ccccc1CNC(=O)c1cc(S(=O)(=O)N2CCCC(C)C2)ccc1F (stereo not given),-0.6,-0.035
COc1ccc(C2CC(c3cccs3)=NN2c2nc(-c3ccc(S(=O)(=O)N4CCOCC4)cc3)cs2)cc1OC (stereo not given),/,2.83
Cc1cc(C)nc(SCC(=O)OCC(=O)c2ccc3[nH]c(=O)[nH]c3c2)n1,-0.6,/

# All compounds of this part, from the first entry:
molecule,AID504770,Ba CapD inh
Cc1ccc2nc(-c3ccc(NC(=O)c4cc(C)on4)cc3)sc2c1,1.3,23.8
COc1ccccc1CNC(=O)c1cc(S(=O)(=O)N2CCCC(C)C2)ccc1F (stereo not given),-0.6,-0.035
COc1ccc(C2CC(c3cccs3)=NN2c2nc(-c3ccc(S(=O)(=O)N4CCOCC4)cc3)cs2)cc1OC (stereo not given),/,2.83
Cc1cc(C)nc(SCC(=O)OCC(=O)c2ccc3[nH]c(=O)[nH]c3c2)n1,-0.6,/
C=CCN1C(=O)C(C(=O)Nc2ccc(C)cc2)C2CC1(C)Oc1ccccc12 (stereo not given),-0.45,/
CCCn1c[n+](CC(=O)C(C)(C)C)c2ccccc21,-0.6,-0.5
Cc1cc(C)c2c(N)c(C3=NC(C)(C)Cc4ccccc43)sc2n1,-0.65,-1.58
CC1CN(c2ncnc3c2cnn3-c2ccccc2)CC(C)O1 (stereo not given),0.05,/
COc1ccc(C2=NN(C(=O)CCC(=O)O)C(c3ccc(F)cc3)C2)cc1 (stereo not given),/,4.95
N#Cc1c(N)nc(SCC(=O)NCc2ccccc2)c(C#N)c1-c1ccccc1Cl,/,19.6

# (more compounds)
molecule,AID504770,Ba CapD inh
COc1ccc(CN(C(=O)CSc2nnc(-c3ccc(OC)c(OC)c3)o2)c2ccc(F)cc2)cc1,0.3,/
Cc1oc(-c2ccccc2Cl)nc1CSCC(=O)N1CCCC1,1,59.2
COc1ccccc1-c1nnc(SCC(=O)c2cc(C)n(C)c2C)n1C,0.95,/
O=C(CCN1CCOCC1)NC=Nc1cccnc1,-0.4,-0.14
O=c1c2c(nc3c(-c4ccccc4)c[nH]n13)CCCC2,1.9,3.56
O=S(=O)(Nc1ccc(-n2cccc2)cc1)c1cc(C(F)(F)F)cc(C(F)(F)F)c1,/,0.175
O=C(O)CCCc1nnc2c(=O)n(-c3ccc(Cl)cc3)ccn12,-0.4,0.345
CCOC(=O)C1C2C=CC3(CN(Cc4ccc(C)cc4)C(=O)C13)O2 (stereo not given),3.15,-1
Cc1ccccc1NC1=NC(=S)N(c2cccc(C(F)(F)F)c2)C12CCC(C(C)(C)C)CC2 (stereo not given),/,0.045
Cc1nsc(N)c1C(=O)OCC(=O)Nc1ccc(F)cc1,0.25,/

# Two entries drawn at random from the list so far, as already listed:
molecule,AID504770,Ba CapD inh
COc1ccc(CN(C(=O)CSc2nnc(-c3ccc(OC)c(OC)c3)o2)c2ccc(F)cc2)cc1,0.3,/
O=S(=O)(Nc1ccc(-n2cccc2)cc1)c1cc(C(F)(F)F)cc(C(F)(F)F)c1,/,0.175

# Remaining list, next part.
molecule,AID504770,Ba CapD inh
Clc1ccc(CO/N=C2\CCSC3=C2c2ccccc2C3)c(Cl)c1,/,0.285
Cc1ccc2cc([N+](=O)[O-])ccc2n1,/,-1.52
O=C(CN1CCOCC1)Nc1ncc(Cc2ccc(Cl)cc2)s1,0.6,/
Cc1c(NC(=O)c2ccc3c(c2)OCCO3)cccc1-c1nc2ncccc2o1,0.85,-0.86
Cc1ccc(NC(=O)CSc2nc3cc(C(=O)NCC4CCCO4)ccc3c(=O)n2CC2CCCO2)cc1 (stereo not given),/,0.28
O=C(OCC(=O)N1CCOCC1)c1ccccc1Cc1ccccc1,0.15,/
CCOC(=O)C1CCCN(Cc2ccc(CC)cc2)C1 (stereo not given),-0.8,-0.225
CC(=O)NCCNS(=O)(=O)c1ccc(C#N)cc1,/,-0.32
N#Cc1ccc(CSC2=NCCCN2)cc1,/,-0.24
O=C1NCCCCC1NC(=S)Nc1ccccc1 (stereo not given),-0.25,/

# Laid out differently: entries from further up
Cc1ccc2nc(-c3ccc(NC(=O)c4cc(C)on4)cc3)sc2c1
  AID504770: 1.3; Ba CapD inh: 23.8

COc1ccccc1CNC(=O)c1cc(S(=O)(=O)N2CCCC(C)C2)ccc1F (stereo not given)
  AID504770: -0.6; Ba CapD inh: -0.035

COc1ccc(C2CC(c3cccs3)=NN2c2nc(-c3ccc(S(=O)(=O)N4CCOCC4)cc3)cs2)cc1OC (stereo not given)
  AID504770: /; Ba CapD inh: 2.83

Cc1cc(C)nc(SCC(=O)OCC(=O)c2ccc3[nH]c(=O)[nH]c3c2)n1
  AID504770: -0.6; Ba CapD inh: /

# Remaining list, next part:
molecule,AID504770,Ba CapD inh
COc1cccc(-c2nc(CN3CCC(=O)CC3)cs2)c1,-0.9,/
O=C(O)C1C2C=CC(C2)C1C(=O)N1CCc2ccccc2C1 (stereo not given),1.95,-0.26
OC(CSc1ccc(Br)cc1)(c1ccccc1)c1ccccc1,/,-0.655
CC1=CC(=O)C(C(=O)/C=C/c2ccc(N3CCCCC3)cc2)C(=O)O1 (stereo not given),0,/
CS(=O)(=O)c1ccc(-c2noc(C3CCNCC3)n2)cc1,/,-0.165
O=C(COC(=O)c1ccccc1NCc1ccco1)c1ccc2[nH]c(=O)[nH]c2c1,0.9,/
Nc1ccnn1Cc1ccsc1,-0.1,/
CC(C)(C)NC(=O)C1Cc2ccccc2CN1C(=O)Nc1cccc(Cl)c1 (stereo not given),/,-0.715
COc1ccc(-c2noc(N3CCC(C(N)=O)CC3)n2)cc1OC,0.3,0.69
COC(=O)CCCCC1SCC(NC(=O)c2ccccc2)C1OC(C)=O (stereo not given),0.65,/

# Later entries:
molecule,AID504770,Ba CapD inh
CCNC(=S)N1CCN(CCN=Cc2c(O)[nH]c(=O)[nH]c2=O)CC1,-1.85,-0.155
CN1C(=O)/C(=C/c2ccccc2OCc2ccc(C(=O)O)cc2)NC1=S,1.5,-0.245
OC(COc1ccc(N=Cc2ccc(Cl)cc2)cc1)CN1CCCCC1 (stereo not given),0,-0.12
O=Nc1c(O)n(CN2CCCCC2)c2ccccc12,0.85,2.21
Cc1cc(S(=O)(=O)NC2CCN(Cc3ccccc3)CC2)c(C)cc1Cl,-0.7,-0.37
CSc1ncc(-c2ccc(Cl)cc2)n1C,-0.8,0.46
Cc1ccc(C(=O)COC(=O)C(CCCCN2C(=O)C3C4C=CC(C4)C3C2=O)N2C(=O)C3C4C=CC(C4)C3C2=O)cc1C (stereo not given),/,-1.11
O=C(O)c1nccnc1C(=O)Nc1ccc(N2CCOCC2)cc1,1.45,-1.66
CC(C)NC(=O)c1ccccc1NS(=O)(=O)Cc1ccccc1,-0.6,12.6
COC(=O)c1ccc(CSc2nc(C)nc3sc4c(c23)CCCC4)o1,0.25,/

# Additional results
molecule,AID504770,Ba CapD inh
CC(=O)N1CCN(c2ncnc3nc[nH]c23)CC1,1,1
CCN1C(=C(C#N)C#N)C=Cc2cc(C)ccc21,-0.55,/
CC1(C)C=Cc2c(c3ccccc3[nH]c2=O)O1,1.15,3.08
CCCC(C(=O)O)n1cnnn1 (stereo not given),-0.25,/
COc1ccc(N2C(=S)N=C(Nc3cc(Cl)ccc3C)C23CCCCC3)cc1,/,0.045
NC(=O)c1nn(CC(=O)N2CCCN(S(=O)(=O)c3ccc(F)cc3)CC2)c(=O)c2ccccc12,0.1,/
O=c1[nH]c2ccc(N=Cc3cc(Br)c(O)c(Br)c3O)cc2[nH]1,-0.75,-3.34
O=C(O)C1CCCC1C(=O)O (stereo not given),/,0.55
O=C(COC(=O)C12CC3CC(CC(C3)C1)C2)Nc1cc(F)ccc1F,0.7,-0.1
O=C(c1cc(-c2ccccc2O)no1)N1CCOCC1,0.1,0.46

# The list goes on:
molecule,AID504770,Ba CapD inh
C[C@]12CC[C@@H]3c4ccc(O)cc4CC[C@H]3[C@@H]1CC[C@@H]2O,/,-1.82
CC1(C)CC(CCC(=O)Nc2ccccc2Cl)C(=O)O1 (stereo not given),-0.3,0.735
O=C(NCc1cccnc1)OCc1ccc(C#Cc2ccccc2)s1,/,0.15
Cc1ccc(/C(O)=C2\C(=O)C(=O)N(C)C2c2ccccc2)cc1 (stereo not given),0.35,-1.64
Cc1cc(C(=O)CSc2ncn[nH]2)c(C)n1CC(F)(F)F,-0.5,/
O=C(O)C1C2C=CC(C2)C1C(=O)Nc1ccc(-c2csnn2)cc1 (stereo not given),/,0.755
Cc1nc(-c2ccc(Cl)cc2)sc1C(=O)Nc1cccc(C(F)(F)F)c1,/,-0.46
Cc1csc(SCC(=O)c2ccc(S(=O)(=O)N3CCCCC3)cc2)n1,0.4,/
CCOC(=O)c1[nH]c(C(=O)O)c(C(=O)OCc2ccccc2)c1CCC(=O)O,-0.6,0.175
Cc1ccc(N2C(=O)/C(=C/c3ccc(-c4ccc(Br)cc4)o3)C=C2c2ccccc2)cc1C,/,-0.345

# Carrying on.
molecule,AID504770,Ba CapD inh
CC1(C)Cc2ccccc2-c2nc(-c3ccccc3)n(CCO)c(=O)c21,0.1,7.32
Cc1ccc(N(C(=O)NC2CCCCC2)C2=NCCCCC2)cc1,-0.7,/
O=C(/C=C/c1cccs1)NCCCN1CCOCC1,-0.8,-1.58
CSc1ncnc2sc(-c3ccccc3)cc12,-0.35,10.4
CCOc1ccccc1N=c1ssc2c1-c1cc(C)ccc1NC2(C)C,/,-0.9
N#CCC1(C#N)C2CC3CC(C2)CC1C3 (stereo not given),-0.85,-0.02
C=CCNc1sc(C(=O)C(C)(C)C)c(N)c1C#N,2.2,/
COC(=O)c1ccc(Cl)cc1NS(C)(=O)=O,/,0.085
N#Cc1cc2c(nc1SCC(=O)Nc1ccc(S(N)(=O)=O)cc1)CCCCC2,/,0.68
CCCCc1nc(OCC(=O)c2ccccc2)c(C#N)c2c1COC(C)(C)C2,1.3,0.05

# More results follow.
molecule,AID504770,Ba CapD inh
O=C1CN(C(=O)c2ccccc2)C(c2ccccc2)c2cc(F)ccc2N1 (stereo not given),/,-0.045
CCOC(=O)N1CCN(C(=O)Cn2cnc3c(nnn3-c3cccc(Cl)c3)c2=O)CC1,0.4,-0.745
COc1cccc2cc(C3=Nn4c(nnc4-c4ccccc4)SC3)c(=O)oc12,/,0.485
CC(C)C(NC(=O)c1ccc(F)cc1)C(=O)O (stereo not given),-0.15,0.075
CC(C)(CO)NC(=S)NC1CC1,-1.4,0.795
CCN(CC)c1ccc(CNc2ccc3c(c2)ncn3C)cc1,-0.4,57.2
NC(=O)NO,0.15,-0.18
CCCN1C(=O)c2ccc(C(=O)Nc3cc(OC)c(OC)cc3C(=O)O)cc2C1=O,1.95,-0.725
O=C(Nc1c(F)cc(F)cc1Br)c1cc(S(=O)(=O)N2CCN(c3ccccc3)CC2)ccc1F,/,-0.125
COc1ccc(CCNC(=O)CSc2nc3[nH]ncc3c(=O)n2-c2ccc(Cl)cc2Cl)cc1OC,/,-0.5

# Next structures:
molecule,AID504770,Ba CapD inh
CCN(Cc1ccc(Cl)s1)Cn1c(CO)nc2ccccc21,2.3,/
CC(C)(C)C1CCC(C(=O)OCC(=O)N2CCOCC2)CC1 (stereo not given),-0.25,-0.76
N#CC(C#N)=Cc1ccc(OC(F)F)cc1,-1.8,/
COc1ccc(C(CC(=O)O)N2Cc3ccccc3C2=O)cc1 (stereo not given),1.3,-0.075
COc1cccc(C(=O)COc2ccc3ccc(=O)oc3c2)c1,-0.1,4.18
CCCN(Cc1cc2cccc(C)c2[nH]c1=O)C(=O)c1cc(OC)c(OC)c(OC)c1,-0.45,/
NS(=O)(=O)c1ccc(NC(=O)/C=C/c2ccccc2)cc1,-0.1,-0.36
CC(O)(CS(=O)(=O)c1cccc(Cl)c1)C(=O)Nc1ccc(Cl)cc1 (stereo not given),/,-0.65
Cc1ccc2nc(SCC(=O)NC3Cc4ccccc4C3)[nH]c2c1,/,0.265
O=C(CC(=O)NCc1ccc(Cl)cc1)NCc1ccc(Cl)cc1,0.5,-0.405

# Later entries:
molecule,AID504770,Ba CapD inh
CCOc1ccc(C2=NN3C(C2)c2cccc(OC)c2OC3c2ccc(OC)c(OC)c2)cc1 (stereo not given),/,0.335
CCOc1ccc(C2(O)CN(c3cc(OC)ccc3OC)C3=[N+]2CCCS3)cc1 (stereo not given),/,0.045
COC(=O)C12Nc3ccccc3NC(c3ccccc3)=C1C(=O)C(=O)N2c1cccc(C(F)(F)F)c1 (stereo not given),/,-0.04
COC(=O)c1sc2ccccc2c1-n1cccc1C(=O)C(=O)NC(C)C,/,-0.145
COC(=O)C1=C(N)Oc2c(Br)cc(Br)cc2C1C(C#N)C(=O)OC (stereo not given),/,-0.5
CCOc1ccccc1NC(=O)C(C)CC (stereo not given),-0.55,-0.275
CC(C)(C)c1ccc(-c2[nH]ncc2-c2ccnc3ccccc23)cc1,/,-0.52
C=CCNc1nc(Nc2ccc(-c3nc4ccccc4o3)cc2)nc(N2CCOCC2)n1,-0.45,-0.51
CCN(CC)C(=O)COCC1CCCN2CCCCC12 (stereo not given),-0.8,-0.395
COc1ccc(C2C(C(=O)N3CC(C)CC(C)C3)c3ccccc3C(=O)N2c2ccc(OC)cc2)cc1 (stereo not given),/,-0.22

# Remaining list, next part.
molecule,AID504770,Ba CapD inh
CCCn1c(SCC(=O)c2cc(C)n(C3CC3)c2C)nc2cc(S(N)(=O)=O)ccc21,0.25,/
Cc1cccc(C(=O)NC(C(=O)O)C(C)C)c1 (stereo not given),0.15,-0.66
COc1ccc(-n2nc(C(=O)NCC(=O)NCc3cccnc3)c3ccccc3c2=O)c(OC)c1,-0.35,0.155
CCCCNC(=O)c1cc(S(=O)(=O)N2CCCC(C)C2)ccc1F (stereo not given),0.95,0.205
CCCC(=O)NCCc1ccc(F)cc1,1.2,/
CC(C)C(=O)Nc1cccc(-c2nc3ccccc3s2)c1,2.2,-0.745
CC(=O)NCCc1ccc(-c2csc(N)n2)cc1,0.4,/
